# Screening data deposited in PubChem by National Center for Advancing Translational Sciences (NCATS).
# Marburg entry inh – qHTS for inhibitors of binding or entry into cells for Marburg Virus; Marburg virus pseudotyped entry inhibition, cell reporter; control for the full effect not named in the record; about a third of the inactives were read at about 46 µM; Potency, µM (doses to about 37.8 µM), inactives show at the top dose activity change, negative = inhibition, most hits filed as inhibitors; 1.8% of 300,000 active; AID 540276, 2011; active = well fitted inhibition curve with a large enough effect; inconclusive = small, poorly fitted or top-dose-only effect, or effect the other way; inactive = flat fitted curve, though single readings scatter; tested in HEK293 cells; about a fifth of its hits are not listed in these tables; also: % is scaled to controls: 0 for no effect and ±100 for the full control effect; luciferase read-out
# RE007 growth inh – qHTS Assay for Inhibitors of the HIV-1 protein Vpr. S. pombe RE007 Vpr strain, BacTiter-Glo ATP luminescence, 24 h; control for the full effect not named in the record. Potency, µM (highest dose often 92.2 µM), without a hit: at the top dose activity change, negative = less growth. 0.21% of 360,000 active. AID 651644, 2012; active = well fitted falling curve with a large enough effect; inconclusive = small, poorly fitted or top-dose-only effect; inactive = no such curve, though single readings can be large or run the other way;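 also: % is scaled to controls: 0 for no effect and ±100 for the full control effect; nearly all actives have a fitted effect of over 50% in size; the assay follows cell death caused by Vpr and the record does not say whether a fall means rescue or toxicity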
#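 Fission yeast RE007 carrying one integrated HIV-1 vpr copy, seeded at OD 0.01 in PMG+AL medium with 23 nL pinned compound. Grown 24 h at 30 degrees; viability read by BacTiter-Glo luminescence after 5 min.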
# 2A StopGo – High Throughput Screening for Foot and Mouth Disease Virus Antivirals. human cells with a luciferase reporter of 2A StopGo recoding; control for the full effect not named in the record. Potency, µM (titrated, usually from 57.9 µM), for the others: at the highest dose signal change, negative = less light. 1.2% of 410,000 active; active = well fitted falling curve with a large enough effect; inconclusive = small, poorly fitted or top-dose-only effect; inactive = no such curve, though single readings can be large or run the other way; tested in HEK293T cells; also: % is scaled to controls: 0 for no effect and ±100 for the full control effect; nearly all actives have a fitted effect of over 45% in size; luciferase light after 4 h
# SARS PLP yeast – qHTS of Yeast-based Assay for SARS-CoV PLP; S. cerevisiae expressing SARS-CoV PLpro, growth rescue; control for the full effect not named in the record; Potency, µM (series often up to 32.9 µM), without a hit: top-dose activity, positive = growth rescue; 0.19% of 330,000 active; AID 485353, 2010; also: 0% is about no effect; nearly all actives have a fitted effect of over 55% in size; growth read by luminescence after 48 h
# Cruzain Triton – qHTS Assay for Promiscuous and Specific Inhibitors of Cruzain (with detergent). Cruzipain (Trypanosoma cruzi), P25779. purified cruzain, Z-FR-AMC fluorescence, 0.01% Triton. Potency, µM, without a hit: max response, negative = inhibition, most hits filed as inhibitors. 0.43% of 200,000 active. AID 1478, 2009; active = well fitted curve in the direction sought with a large enough effect; inconclusive = small, poorly fitted or top-dose-only effect, or another doubt; inactive = no such curve, though single readings can be large; an effect the other way counts as inactive or inconclusive;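 also: plate controls were neutral wells for no effect and buffer without enzyme for full effect; nearly all actives have a fitted effect of over 40% in size; top concentration of the series not given in the record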
# Target sequence (P25779 123-467 limits assumed): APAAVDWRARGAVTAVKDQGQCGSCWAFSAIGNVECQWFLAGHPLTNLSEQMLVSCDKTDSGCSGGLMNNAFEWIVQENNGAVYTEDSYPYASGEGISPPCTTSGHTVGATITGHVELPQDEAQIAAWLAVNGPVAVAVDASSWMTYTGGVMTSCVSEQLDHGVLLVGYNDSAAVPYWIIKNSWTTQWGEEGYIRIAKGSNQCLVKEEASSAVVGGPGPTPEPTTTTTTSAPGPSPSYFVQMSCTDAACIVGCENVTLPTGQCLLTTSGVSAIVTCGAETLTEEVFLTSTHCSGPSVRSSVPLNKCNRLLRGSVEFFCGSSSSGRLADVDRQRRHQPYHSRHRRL
#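 In this qHTS format, compounds are incubated with 1.5 nM cruzain for 15 min at room temperature before 2 uM Z-FR-AMC is added. Release of AMC is followed at 360/450 nm, and progress is taken as the 60 s fluorescence difference.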
# LASV entry inh – qHTS for Inhibitors of binding or entry into cells for Lassa Virus; Lassa virus pseudotype entry inhibition, cell reporter; control for the full effect not named in the record; Potency, µM (series often up to 37.9 µM), inactives show top-dose activity change, negative = inhibition, hits mostly inhibitors; 1.2% of 300,000 active; AID 540256, 2011; active means well fitted inhibition curve with a large enough effect; inconclusive means small, poorly fitted or top-dose-only effect, or effect the other way; inactive means flat fitted curve, though single readings scatter; tested in HEK293 cells; also: % is scaled to controls: 0 for no effect and ±100 for the full control effect; nearly all actives have a fitted effect of over 50% in size; luciferase read-out
# Cruzain noTriton – qHTS Assay for Promiscuous and Specific Inhibitors of Cruzain (without detergent); Cruzipain (Trypanosoma cruzi), P25779; purified cruzain, Z-FR-AMC fluorescence, no detergent; Potency, µM, for inactives: max response, negative = inhibition, hits mostly inhibitors; 2.3% of 200,000 active; AID 1476, 2009; active = well fitted curve in the direction sought with a large enough effect; inconclusive = small, poorly fitted or top-dose-only effect, or another doubt; inactive = no such curve, though single readings can be large; an effect the other way counts as inactive or inconclusive;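 also: plate controls were enzyme without inhibitor for no effect and buffer without enzyme for full effect; nearly all actives have a fitted effect of over 40% in size; top concentration of the series not given in the record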
#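 Detergent-free condition (0.00005% Triton X-100) in acetate buffer pH 5.5 with DTT. 1.5 nM enzyme and compound were pre-mixed 15 min, then 2 uM Z-FR-AMC substrate added; reaction progress from fluorescence change between first and third reads (60 s).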
# NS1 function inh – qHTS Assay for Inhibitors of Influenza NS1 Protein Function; 0.4% of 270,000 active; AID 2326, 2010; S. cerevisiae slowed by influenza A NS1, growth recovery by OD600; Potency, µM (series often up to 46.1 µM), for the others: at the highest dose activity, positive = more growth; also: actives are rising curves; nearly all actives have a fitted effect of over 50% in size
#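 Compounds were scored for reversing the slow growth caused by influenza A NS1 in S. cerevisiae, measured by optical density at 600 nm. Assay medium contained 2% galactose at pH 6.0; NS1-free yeast of the same strain were the positive control.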
# Numbers without * were called inactive; ? = inconclusive; . = no result given; [ ] = dose if it differs, or a comment. Unless noted, calls follow the shape of the dose curve; as a rule, active means well fitted rising curve with a large enough effect; inconclusive means small, poorly fitted or top-dose-only effect; inactive means no such curve, though single readings can be large or run the other way. Potency is read from the fitted curve at half-maximal effect.
SMILES,Marburg entry inh,RE007 growth inh,2A StopGo,SARS PLP yeast,Cruzain Triton,LASV entry inh,Cruzain noTriton,NS1 function inh
CN1CCC(OC(=O)c2ccccc2Cl)CC1,-11.2%[46.1 µM],8.4%,-9.0%,-0.7%,.,3.9%[46.1 µM],.,2.1%
O=[N+]([O-])c1cc(C(F)(F)F)cc([N+](=O)[O-])c1NCc1cccnc1,-2.6%,-6.1%,?,-23.9%,-2.6%,19.2%,-8.1%,3.0%
CC(C)CCC(C)NC(=O)Cc1ccc(S(=O)(=O)N2CCOCC2)s1 (stereo not given),-4.2%[46.1 µM],-10.6%,-1.6%,-0.3%,.,-1.7%[46.1 µM],.,6.0%
CCC(=O)Nc1ccc(NC(=O)CSc2nnc(-c3ccco3)n2CC)cc1,1.4%[46.1 µM],-11.7%,4.6%,-4.9%,.,.,.,-0.2%
CCOc1ccc(Br)cc1C1=NN(C(C)=O)C(c2ccc([N+](=O)[O-])s2)O1 (stereo not given),.,?,0.0%,-12.4%,.,.,.,-64.2%
CNc1nc(C)nc(N/N=C/c2ccccc2)n1,6.3%[46.1 µM],-7.0%,33.3%[activator],-0.2%,.,-0.5%[46.1 µM],.,4.7%
COc1ccc(C)cc1NC(=O)NNC(=O)c1ccoc1C,5.8%,-22.1%,0.0%,-5.1%,.,1.0%,.,-4.5%
COc1cccc(CN2CCNC(=O)C2CC(=O)NCCc2ccccn2)c1 (stereo not given),23.8%[46.1 µM],-1.2%,17.0%,0.9%,.,3.4%[46.1 µM],.,-5.2%
CCCN(Cc1cc2ccccc2[nH]c1=O)C(=O)c1cccc([N+](=O)[O-])c1,0.1%[46.1 µM],-8.1%,-26.3%,1.6%,.,?,.,4.4%
Cc1noc(C)c1C(=O)Nc1ccccn1,-0.2%,4.9%,-12.1%,3.1%,4.4%,3.4%,0.1%,3.9%
Cc1c(C(=O)NCC(C)C)sc2nc(-c3ccc(F)cc3)cn12,.,3.6%,8.9%,-2.3%,-3.5%,.,?,0.9%
CC1(C)CC(=NNC(=O)c2n[nH]c3c2CCC3)CC(C)(C)N1,.,8.1%,-16.9%,0.4%,.,.,.,8.5%
COc1ccc(CC(=O)NC(=S)Nc2ccc(S(=O)(=O)NC(C)(C)C)cc2)cc1,-12.5%[46.1 µM],22.9%,-7.1%,1.4%,-13.0%,?,-21.9%,23.2%
CCOc1ccc(S(=O)(=O)Nc2cc(F)ccc2F)c2cccnc12,6.2%[46.1 µM],0.5%,69.6%[activator],-3.2%,.,0.9%,.,4.8%
CC(C)(C)NC(=O)NC(=O)COC(=O)C1CC(=O)N(Cc2ccccc2)C1 (stereo not given),-16.2%,4.8%,7.0%,5.4%,5.4%,16.3%,18.2%,-6.5%
O=C(COC(=O)Cc1ccc(S(=O)(=O)N2CCOCC2)s1)NCc1ccccc1,-0.4%,25.6%,13.2%,2.9%,-2.2%,19.3%,2.0%,-8.7%
Cc1ccc(CNS(=O)(=O)c2ccc(CN3C(=O)c4cccnc4C3=O)cc2)o1,2.2%[46.1 µM],7.2%,-8.6%,2.6%,.,?,.,-1.6%
Cc1ccc(C2/C(=C(/O)c3ccc(Cl)cc3)C(=O)C(=O)N2CC2CCCO2)o1 (stereo not given),3.1%,-8.5%,-5.1%,-2.9%,-5.7%,16.3%,-10.9%,0.3%
CCOC(=O)c1sc(C)c(C(N)=O)c1NC1=NCCCCC1,-4.6%,2.2%,5.8%,-3.0%,-3.3%,-2.0%,5.0%,?
O=C(N/N=C\c1ccc(O)c([N+](=O)[O-])c1)C1COc2ccccc2O1 (stereo not given),.,-10.9%,-1.4%,-5.1%,.,.,.,-48.6%
CCOC(=O)c1nc2c(=O)n(C)c(=O)n(C)c2n(C)c1=O,-4.6%[46.1 µM],12.6%,-2.6%,.,.,?,.,.
CCS(=O)(=O)N1Cc2ccccc2CC1C(=O)Nc1ccccc1OC (stereo not given),.,3.5%,11.0%,-0.2%,.,.,.,-2.4%
COc1cc(C2NC(C(=O)O)CS2)ccc1OCc1ccccc1C#N (stereo not given),.,.,.,-14.4%,-5.6%,.,-13.6%,-32.1%
COC(=O)Nc1ccc(OCC(=O)N2CCOCC2)cc1,-8.4%,-17.7%,-3.0%,12.4%,2.0%,1.2%,0.0%,-0.3%
Cc1ccsc1CN(C)CC(=O)Nc1cccc(S(=O)(=O)N(C)c2ccccc2)c1,?,-26.6%,-12.8%,1.7%,.,-21.6%,.,.

# (more compounds)
SMILES,Marburg entry inh,RE007 growth inh,2A StopGo,SARS PLP yeast,Cruzain Triton,LASV entry inh,Cruzain noTriton,NS1 function inh
COc1cccc(CN(Cc2ccccc2F)S(=O)(=O)c2ccc(S(=O)(=O)NCc3ccccc3)cc2)c1,-22.2%,5.8%,9.3%,25.6%,-4.6%,?,-1.7%,1.8%
CCOC(=O)N1CCN(C(=O)COc2ccc(Cl)cc2)CC1,0.4%,-5.5%,-11.7%,-1.6%,0.7%,26.1%,3.5%,3.4%
O=C(NCCN1CCOCC1)c1ccc2c(c1)ncn2C1CCCCC1,21.2%,2.3%,19.9%,-4.4%,1.6%,-3.6%,0.6%,-1.5%
COc1cccc(/C=C/C(=O)OCC(=O)c2c(N)n(C)c(=O)n(C)c2=O)c1,1.0%,3.4%,-14.2%,1.3%,.,-0.6%,.,.
COC(=O)c1cccc(-c2ccc(C(c3c(C)[nH][nH]c3=O)c3c(C)[nH][nH]c3=O)o2)c1,-4.7%[46.1 µM],-5.9%,?,2.2%,.,-12.8%,.,.
CCc1nnc(NS(=O)(=O)c2ccc(NC(=S)NC(=O)/C=C/c3ccccc3)cc2)s1,?,0.4%,?,-5.5%,25.1µM*,11.7%,0.7%,-5.2%
Cc1ccc(S(=O)(=O)NCC(C)NS(C)(=O)=O)cc1 (stereo not given),21.5%,20.7%,13.4%,11.9%,4.7%,0.9%,-5.9%,2.9%

# Filtered by structure: the compounds so far containing a halogen (8)
SMILES,Marburg entry inh,RE007 growth inh,2A StopGo,SARS PLP yeast,Cruzain Triton,LASV entry inh,Cruzain noTriton,NS1 function inh
CN1CCC(OC(=O)c2ccccc2Cl)CC1,-11.2%[46.1 µM],8.4%,-9.0%,-0.7%,.,3.9%[46.1 µM],.,2.1%
O=[N+]([O-])c1cc(C(F)(F)F)cc([N+](=O)[O-])c1NCc1cccnc1,-2.6%,-6.1%,?,-23.9%,-2.6%,19.2%,-8.1%,3.0%
CCOc1ccc(Br)cc1C1=NN(C(C)=O)C(c2ccc([N+](=O)[O-])s2)O1 (stereo not given),.,?,0.0%,-12.4%,.,.,.,-64.2%
Cc1c(C(=O)NCC(C)C)sc2nc(-c3ccc(F)cc3)cn12,.,3.6%,8.9%,-2.3%,-3.5%,.,?,0.9%
CCOc1ccc(S(=O)(=O)Nc2cc(F)ccc2F)c2cccnc12,6.2%[46.1 µM],0.5%,69.6%[activator],-3.2%,.,0.9%,.,4.8%
Cc1ccc(C2/C(=C(/O)c3ccc(Cl)cc3)C(=O)C(=O)N2CC2CCCO2)o1 (stereo not given),3.1%,-8.5%,-5.1%,-2.9%,-5.7%,16.3%,-10.9%,0.3%
COc1cccc(CN(Cc2ccccc2F)S(=O)(=O)c2ccc(S(=O)(=O)NCc3ccccc3)cc2)c1,-22.2%,5.8%,9.3%,25.6%,-4.6%,?,-1.7%,1.8%
CCOC(=O)N1CCN(C(=O)COc2ccc(Cl)cc2)CC1,0.4%,-5.5%,-11.7%,-1.6%,0.7%,26.1%,3.5%,3.4%
